Tg IFNy HTS: T. gondii growth inhibition with IFN-gamma, primary screen, cell-based; Toxoplasma gondii growth in IFN-gamma-treated host cells; active compounds read low; reference of the scale not given here; activity change, negative = inhibition, %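 (about 20 µM by stock and volumes)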; AID 1259416, 2018; actives 3.8% (n = 69,000);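 active means below -70%; inconclusive means fit judged invalid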;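 further: host cells are HeLa cells infected with Toxoplasma gondii; parasite growth read as luciferase light; one replicate is shown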
* hit, by the source's call; ? = inconclusive; & = joins results of further samples.

structure | Tg IFNy HTS
Cc1nn(C)c(Cl)c1CN(Cc1ccncc1)Cc1ccc(F)cc1 | -42.1
CCn1ccc2cc(S(=O)(=O)N3CCCC(C(=O)NCc4ccccn4)C3)ccc21 (stereo not given) | -42.9
O=C(c1ccc(Cn2cncn2)cc1)N1CCC(N2CCCCC2)CC1 | 2.9
Cc1ccc(-c2nc(C)c(CCNC(=O)C(=O)Nc3ccccc3Cl)s2)cc1 | 1.6
CC1OC(OCC2OC(Oc3c(-c4ccc(O)c(O)c4)oc4cc(O)cc(O)c4c3=O)C(O)C(O)C2O)C(O)C(O)C1O (stereo not given) | -5.8
Cc1oc(-c2ccc(C(=O)NC3CCS(=O)(=O)C3)cc2)nc1CN1CCN(c2ccccc2)CC1 (stereo not given) | 72.9
CCC(C)(C)NC(=O)CN1CCC2(CC1)c1ccccc1[C@@H](OC)[C@@H]2O | 5.4
NC(=O)c1nc(C2=Cc3ccccc3OC2)nc2c1[nH]c(=O)n2CCc1ccccc1 | -24.7
CO[C@@H](CN(C)C(=O)C1CCOCC1)[C@H](C)CN(C(=O)Nc1ccc(C(F)(F)F)cc1)[C@@H](C)CO | -52.5
c1cc2occc2c(-c2cc(NC3CCNCC3)nc3[nH]ccc23)n1 | ?
COc1ccc(NC(=O)N(C)C[C@@H]2OCc3ccccc3-c3ccccc3C(=O)N([C@H](C)CO)C[C@@H]2C)c(OC)c1 | 43.8
Cc1nc2ccccc2c(=O)n1CC(=O)NCC(c1cccnc1)N1CCOCC1 (stereo not given) | -6.9
CC(c1cccc(-c2ccc3[nH]c(=O)[nH]c(=O)c3c2)c1)N1CCCC1 (stereo not given) | -71.4*
CC(C)c1nccc(CN2CCC(c3[nH]ncc3Cc3ccccc3)CC2)n1 | -5.5
O=C1CSC(=O)N1CC(O)Cn1c2ccccc2c2ccccc21 (stereo not given) | 26.8
CN1C[C@H](NC(=O)c2cn3cc(Cl)ccc3n2)C[C@H]1CO | -49.1
COc1ccc2c(c1)NC1(CCN(C(=O)c3ccc(C)c(F)c3)CC1)c1cccn1-2 | 24.1
O=C(NCCN1CCCCC1)[C@H]1N[C@H]2c3ccc(-c4cccnc4)c(=O)n3C[C@H]2[C@@H]1CO | -4.4
Cc1cccc(C#Cc2ccccc2)n1 | 250.0
CCOc1cccc(C2c3[nH]c4ccccc4c3CCN2C(=O)c2cc(OC)c(OC)c(OC)c2)c1 (stereo not given) | -51.7
COC(=O)c1cc(C)nc2c1c(=O)n(Cc1nc(-c3ccc(OC)c(OC)c3)oc1C)c(=O)n2C | -5.4
COc1cccc(NC(=O)N2[C@@H](CO)[C@H](c3ccccc3)[C@@H]2CNCC(C)C)c1 | 11.0
COc1ccc(CN2CCN(c3nc4ccccc4s3)CC2)c(OC)c1OC | -20.5
O=S(=O)(c1cccc(F)c1)N1CCCCC1c1nnc(-c2ccccn2)o1 (stereo not given) | 5.3
O=C(c1ccco1)N1CCN(c2nc(-c3ccc(Cl)cc3)nc3ccccc23)CC1 | -86.9
Cn1c(=O)c(C(=O)Nc2ccccc2)cc2cccnc21 | 256.0
C[C@@H]1CN([C@H](C)CO)C(=O)c2cc(-c3cccc(C(=O)N(C)C)c3)cnc2O[C@H]1CN(C)C(=O)Cc1ccccn1 | 11.6
Cc1nc2ccccn2c1CN1CCCN(c2ccc(F)cc2)CC1 | -61.1
O=C1NC2(CCN(c3ncc(F)cn3)CC2)CC1c1ccccc1 (stereo not given) | 3.8
Cc1oc(-c2ccccc2Cl)nc1Cn1c(C)nc2onc(C)c2c1=O | 52.0
Cc1cc(C)n(-c2ccc(CCC(=O)Nc3nc(-c4ccccn4)cs3)cc2)n1 | -97.9*
O=C1CN(Cc2ccccc2)CC(=O)N1CCc1ccccc1 | 106.2
COc1cc(NC(=O)Nc2ccc(-c3nc(-c4cc(C)ccc4C)co3)cc2)cc(OC)c1OC | -54.4
Cc1cc(-n2cnnc2)ncc1-c1ccc(C(C)N2CCCC2)cc1 (stereo not given) | -5.2
CCO[C@@H]1CN(S(=O)(=O)c2cccnc2)[C@H]2CCCO[C@@H]12 | 6.0
COc1cc(N2C[C@@H]3C[C@H](C(=O)NCCN(C)C)N(C)[C@@H]3C2)ncn1 | -8.9
COc1ccc(C2(O)CCN(CC(=O)Nc3ccc4c(c3)OCO4)CC2)cc1 | -1.4
CO[C@H](CN(C)Cc1cc(F)ccc1F)[C@@H](C)CN(C(=O)Nc1ccc(C(F)(F)F)cc1)[C@H](C)CO | 54.9
C[C@@H]1CN([C@H](C)CO)C(=O)c2cccc(NC(=O)c3cnccn3)c2O[C@@H]1CN(C)C(=O)NC1CCCCC1 | 1.7
C=CCn1cc(-c2c(-c3ccccc3)ncn2CCc2ccccn2)cn1 | -1.4
COc1ccc(OCC(=O)N2CCC3(CC2)Nc2ccc(C)c(C)c2-n2cccc23)cc1 | 28.5
CCn1cncc1CNC(=O)c1csc2nc(-c3cccc(OC)c3)cn12 | 1.8
Cc1ccccc1S(=O)(=O)Nc1ccc2c(c1)C(=O)N(C)[C@@H]1CC[C@@H](CC(=O)O)O[C@@H]1CO2 | -14.5
Cc1cc(OC(=O)c2c(-c3c(Cl)cccc3Cl)noc2C)n(-c2ccccc2)n1 | 21.2
CCOC(=O)Cn1nc(NC(=O)COc2ccc(F)cc2F)cc1C | 10.4
COCc1nc(C)c(CNC(=O)c2c(C)nc3sccn23)s1 | 6.1
O=c1cc(C(F)(F)F)nc(Nc2nc(-c3ccccc3)c3cc(Cl)ccc3n2)[nH]1 | -15.1
Cc1ccc(N2CCN(C(=O)c3ncc[nH]3)C(C)C2)cc1 (stereo not given) | 2.4
CC[C@H](NC(=O)c1cccc(NCC(=O)O)c1)c1ccccc1 | -35.8
Cc1ccccc1NC(=O)CC(=O)N1CCCC1Cn1cccn1 (stereo not given) | -60.7
C[C@H](CO)N1C[C@H](C)[C@H](CN(C)C(=O)[C@@H](Cc2ccccc2)N(C)C)OCc2ccccc2-c2ccccc2C1=O | -19.3
CCOC(=O)c1c(C)c(NC(C)=O)c(C)n1C(C)=O | 0.0
NCCc1n[nH]c(=O)n1CCc1ccccc1 | -50.3
CCC(=O)N1[C@H](CO)[C@@H](c2ccccc2-c2ccccc2)[C@@H]1C#N | 15.2
Cc1nccn1CCC(NC(=O)c1cn(-c2ccccc2)nn1)c1ccccc1 (stereo not given) | -0.6
O=C(c1ccc[nH]1)N1CC[C@H](O)[C@@H]1Cc1cccnc1 | -29.5

The list goes on:
structure | Tg IFNy HTS
CCOc1ccc(-c2cnc(C3CCCNC3)[nH]2)cc1OCC (stereo not given) | 3.1
COCC(=O)NCc1cc(=O)n2c(n1)CN(Cc1ccoc1)CCC2 | 5.7
CC(C)COc1ccc(-c2noc(-c3c(O)c4ccccc4[nH]c3=O)n2)cc1 | 47.7
CC1CCN(S(=O)(=O)N2CCCC(c3nc4ccccc4n3C(C)C)C2)CC1 (stereo not given) | 2.0
C[C@@H]1CN([C@H](C)CO)C(=O)Cc2cc(NC(=O)C3CC3)ccc2O[C@@H]1CN(C)S(=O)(=O)c1cn(C)cn1 | -55.2
Cc1cc(C)cc(NC(=O)CN2C(=O)CCc3cc(S(=O)(=O)N4CCCC4)ccc32)c1 | 22.0
COc1ccc(-c2nc(C)c(CCNS(C)(=O)=O)s2)cc1 | 376.9
O=C(C[C@@H]1CC[C@H](NC(=O)Nc2ccc(C(F)(F)F)cc2)[C@@H](CO)O1)NCc1cccc(F)c1 | -52.7

Of the compounds above, these have a COOH group.
structure | Tg IFNy HTS
Cc1ccccc1S(=O)(=O)Nc1ccc2c(c1)C(=O)N(C)[C@@H]1CC[C@@H](CC(=O)O)O[C@@H]1CO2 | -14.5
CC[C@H](NC(=O)c1cccc(NCC(=O)O)c1)c1ccccc1 | -35.8

Further structures:
structure | Tg IFNy HTS
COc1ccc(OCc2nc(C(=O)N3CCNCC3c3ccccc3)co2)cc1 (stereo not given) | -2.6
Cc1ccc2c(c1)C1(CCNCC1)CC2OCC1CC1 (stereo not given) | -17.6
CN1C(=O)c2cc(NC(=O)c3cnccn3)ccc2OC[C@@H]2O[C@H](CC(=O)N[C@H]3CCN(Cc4ccccc4)C3)CC[C@H]21 | -2.2
CN1C(=O)C(c2nnc(Nc3cccc4ccccc34)s2)C2CC1(C)Oc1ccccc12 (stereo not given) | 16.5
CN1CCC(N2CCN(c3ncccc3-c3nnc(-c4ccc(Cl)cc4)o3)CC2)CC1 | -1.3
CNCc1ccccc1 | 8.8
CN(C)CC1(O)CCN(C(=O)c2ccnc(-n3cnnc3)c2)C1 (stereo not given) | -1.3
CCOC(=O)CCn1cc(F)c(=O)[nH]c1=O | -3.2
Cc1nc(C2CCCNC2)cc(N2CCc3[nH]nc(C(C)C)c3C2)n1 (stereo not given) | -5.3
Cc1ccc(C)c(OCC(=O)NCC2(c3ccc(F)cc3)CCOC2)c1C (stereo not given) | -6.6
COCc1noc(CN2CCC3(CCCO3)CCC2=O)n1 (stereo not given) | 3.0
CO[C@@H]1CN(C)C(=O)c2cc(NC(=O)c3cnccn3)ccc2OC[C@H](C)NC[C@@H]1C | -34.9
Cc1nc(C)c(CC(=O)N2CCOc3ccc(CN4CCN(c5ccccn5)CC4)cc3C2)s1 | -43.6
CCCOC1CCCN(C(=O)c2cc(NC(C)=O)ccc2Cl)C1 (stereo not given) | -12.9
CCc1ccccc1NC(=O)C(=O)N1CCC2(CCN(C)C2)CC1 | -29.3
Cc1cccc(-c2cc3nc4c(c(=O)n3[nH]2)CCC4)c1 | -99.7*

A stretch taken from the entries so far, for reference:
structure | Tg IFNy HTS
Cc1nc(C2CCCNC2)cc(N2CCc3[nH]nc(C(C)C)c3C2)n1 (stereo not given) | -5.3
Cc1ccc(C)c(OCC(=O)NCC2(c3ccc(F)cc3)CCOC2)c1C (stereo not given) | -6.6
COCc1noc(CN2CCC3(CCCO3)CCC2=O)n1 (stereo not given) | 3.0
CO[C@@H]1CN(C)C(=O)c2cc(NC(=O)c3cnccn3)ccc2OC[C@H](C)NC[C@@H]1C | -34.9
Cc1nc(C)c(CC(=O)N2CCOc3ccc(CN4CCN(c5ccccn5)CC4)cc3C2)s1 | -43.6
CCCOC1CCCN(C(=O)c2cc(NC(C)=O)ccc2Cl)C1 (stereo not given) | -12.9
CCc1ccccc1NC(=O)C(=O)N1CCC2(CCN(C)C2)CC1 | -29.3

(next part)
SMILES | Tg IFNy HTS
CC(C)Cc1cc(CNC(=O)c2cc(C3CC3)[nH]n2)on1 | 75.0
Cc1cnc(C(=O)N2CCC3(CCN(c4cnn(C)c4)C3=O)C2)cn1 (stereo not given) | 0.0
CCOc1c(CN(C)c2ncnc3c2CCNC3)cccc1OC | -7.2
Cc1csc(NC(=O)C(=O)N2CCOC3(CNCCOC3)C2)n1 (stereo not given) | 5.9
Cc1oc(-c2cccc(C(F)(F)F)c2)nc1CN1CCCC(C(N)=O)C1 (stereo not given) | 3.5
O=C(NCc1cc(F)cc(F)c1)c1c(O)c2cccnc2n(-c2ccc(F)cc2)c1=O | 192.1
COc1cc(C(=O)Nc2ccccc2SCCC#N)cc(OC)c1OC | 23.3
CCCc1cc(CNC(=O)C2(C)CC(c3ccccc3)=NO2)on1 (stereo not given) | ?
N#CCSC1=Nc2ccccc2C2=NC(CCC(=O)NCc3ccc(F)cc3)C(=O)N12 (stereo not given) | 8.0
CC(C)Oc1cccc(F)c1-c1nccc(N2CCCC(O)C2)n1 (stereo not given) | 1.0
Cn1cnc2c1C(COCC1CC1)CN(Cc1cccs1)C2 (stereo not given) | 0.5
COCC(c1ccccn1)N(C)Cc1ncc[nH]1 (stereo not given) | 0.0
Cc1ncc(Cl)cc1S(=O)(=O)N1CCN(C(=O)C2CCCCC2)CC1 | -10.5
Cc1ccccc1C(=O)N1CCN(Cc2ccccc2)CCC1=O | -55.8
Cc1ccc(C2(O)CCN(C(=O)c3cnc(C(C)C)[nH]c3=O)CC2)nc1 | 1.3
Cc1ccccc1-c1nn(-c2ccc(F)cc2F)cc1CN1CCN(CCC(N)=O)CC1 | -33.7
O=C(CSCc1c(F)cccc1Cl)c1ccc2c(c1)OCCO2 | 256.1
CCc1ccc(CNC(=O)c2nc(Nc3ccc(C)cc3)c3ccccc3n2)cc1 | -54.6
O=C(CCc1ccc2c(c1)OCO2)N1CCN(Cc2ccco2)C(CCO)C1 (stereo not given) | 65.0
O=C(Nc1ccc(OCc2ccccc2F)cc1)c1ccc(-n2cnnc2)cc1 | 34.2
CC[C@@]1(C2O[C@@H](C3O[C@@](O)(CO)[C@H](C)C[C@@H]3C)C[C@@H]2C)CC[C@H]([C@]2(C)CC[C@]3(C[C@H](O)[C@@H](C)[C@@H]([C@@H](C)[C@@H](OC)[C@H](C)C(=O)O)O3)O2)O1 (stereo not given in full) | -79.9*
CCS(=O)(=O)N1CCC2(CCOCC2COc2cnccn2)CC1 (stereo not given) | 12.7
COCCN(Cc1cnn(C)c1)C(=O)CC1CNCCO1 (stereo not given) | 5.4
Nc1nc2c(s1)CN(C(=O)C1CC3(CCNCC3)CN1)CC2 (stereo not given) | -33.7
Cc1cccc(NC(=O)CCNC2CCN(CC(C)C)CC2)c1 | -10.5
C=CCOCC12CCCOC1CCN(CC1CC1)C2 (stereo not given) | 35.7
Cc1oc(-c2ccc(Cl)cc2)nc1Cn1ccn2nc(-c3cccs3)cc2c1=O | 72.8
CN1C(Cn2cccn2)CC2CN(C(=O)c3cccc(C#N)c3)CCC21 (stereo not given) | -3.6
COCCNC(=O)c1ccc2ccc(N(C)Cc3ccccc3)n2c1 | -2.3
CSc1cccc(CN(C)C(=O)c2cccnn2)c1 | -42.5
Cc1nn2c(=O)/c(=C/c3ccc(Cl)cc3)sc2nc1=O | 33.8
Cc1oc(-c2cccc(Cl)c2)nc1Cn1nnc(-c2nc(-c3ccccc3)no2)c1C | 51.4
O=C(NCCc1csc(-c2ccccc2)n1)[C@H]1CSCN1S(=O)(=O)c1ccc(Cl)cc1 | -38.1
COc1ccccc1NC(=O)c1nnn(Cc2nc(-c3ccccc3)oc2C)c1C | -4.0
CCN1CCC2(CC1)OC(=O)C(C)=C2C(=O)NCCc1ccc(Cl)cc1 | 47.8
Clc1cncc(Cl)c1CN1CCC(OCc2cccnc2)CC1 | 7.1
CSc1nc2cc(Oc3cccc(Cl)c3Cl)c(Cl)cc2[nH]1 | -31.8&-29.3
NC(=O)C1CCN(c2cnc3ccccc3n2)CC1 | 15.4

Bioassay records from PubChem.

Only part of the results is shown, so the mix of outcomes need not match the whole.
